MLL AF4-AF9 inh: inhibitors of AF4 peptide binding to AF9, primary screen, biochemical, AlphaScreen, biotin-AF4 peptide, FLAG-AF9, single point. AID 651704, 2012. Protein AF-9 (Homo sapiens), P42568. hit rate 0.47% among 350,000. inhibition, % at 10 µM;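 active means every replicate reaching a set inhibition limit, whatever the replicate mean, cut at about 25% in these data; inconclusive means mean inhibition reaches that limit but some replicates miss it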;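 further: 0% = plate neutral control median and 100% = total signal loss; the record names both 10 and 1 µM as test concentration; the first replicate is given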
Target sequence (P42568 whole entry, looked up): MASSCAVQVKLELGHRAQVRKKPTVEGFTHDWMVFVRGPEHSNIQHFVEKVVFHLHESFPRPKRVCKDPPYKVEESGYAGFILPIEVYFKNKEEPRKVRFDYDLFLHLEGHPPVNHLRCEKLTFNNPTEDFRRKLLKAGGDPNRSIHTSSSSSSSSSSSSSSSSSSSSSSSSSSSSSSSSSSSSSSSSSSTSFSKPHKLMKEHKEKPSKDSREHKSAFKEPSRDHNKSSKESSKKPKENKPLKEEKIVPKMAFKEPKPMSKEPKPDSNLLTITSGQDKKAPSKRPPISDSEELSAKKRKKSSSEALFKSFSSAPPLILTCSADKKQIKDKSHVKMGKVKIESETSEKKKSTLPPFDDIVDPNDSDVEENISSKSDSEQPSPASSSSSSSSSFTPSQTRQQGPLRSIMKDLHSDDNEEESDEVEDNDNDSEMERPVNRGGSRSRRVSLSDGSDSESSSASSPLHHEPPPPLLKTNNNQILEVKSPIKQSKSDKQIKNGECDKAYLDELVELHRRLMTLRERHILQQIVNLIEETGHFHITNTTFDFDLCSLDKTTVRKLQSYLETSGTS
Calb FLC: C. albicans growth inhibition with fluconazole, primary screen, CaCi-2 strain, Alamar Blue fluorescence. C. albicans CaCi-2 (fluconazole-resistant clinical isolate) + fluconazole, 48 h. growth inhibition, % (concentration not given with the values). hit rate 0.57% among 300,000. AID 1979, 2009;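 active means most replicates above 75%; inconclusive means exactly half above 75%; inactive means most below 75%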;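 further: all wells also contain fluconazole at 8 µg/ml as a sub-toxic cotreatment; 0% = median of DMSO wells and 100% = median of geldanamycin control wells; wells of about 8 µL received 7.5 nL stock; the first replicate is given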
Vif TR-FRET: inhibitors of Vif binding to APOBEC3G peptide, primary screen, biochemical, TR-FRET, GST-Vif 1-94, biotin-A3G peptide, dose response retest (AID 1117319). inhibition, %, or IC50 in µM where a hit was titrated. TR-FRET GST-Vif / biotin-A3G peptide binding; higher % means a stronger effect; test concentration not given here; strong numbers were not always called active. Virion infectivity factor (Human immunodeficiency virus type 1 group M subtype B (isolate …. hit rate 0.57% among 260,000;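 active means above the screen mean plus three standard deviations and confirmed in dose response; inconclusive means results disagree or hit not tested in dose response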;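 further: Vif residues 1-94 fused to GST binding biotinylated APOBEC3G peptide 110-148; 0% = full assay without inhibitor and 100% = GST in place of GST-Vif; retest series ran down from 100 µM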
Beta cell apopt: inhibitors of cytokine-induced beta cell apoptosis, primary screen, luminescence; INS-1E cytokine-induced death, ATP luminescence, 48 h; percent of positive-control rescue, neutral wells zero; protection from apoptosis, % (concentration not given with the values); hit rate 0.8% among 300,000;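 active means all replicates at 75% or more, or half of them and the mean; inconclusive means half reach 75% but not the mean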;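 further: 0% = cytokine-treated negative control wells and 100% = positive control rescue; higher means more ATP so stronger rescue from cytokine killing; wells of about 40 µL received 100 nL stock; the first replicate is given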
Bfl-1 A1 inh: caspase 3/7 activation in MEF A1-2A-BIM cells, primary screen, A1 inhibitor project, cell-based, luminescence, HTS; caspase activation, % (concentration not given with the values); Caspase-Glo 3/7 luminescence, 3 h; percent of clofoctol response, vehicle zero; hit rate 0.066% among 330,000;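 active means over half of replicate activation scores above 10%, or exactly half above 10 with the replicate mean above 10; inconclusive means replicate mean below 10 yet half the replicates above 10; inactive means over half of replicates below 10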;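 further: wells of about 30 µL received 50 nL stock; many hits fall short of the cut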
T cruzi inh: inhibitors of intracellular T. cruzi growth, primary screen, luminescence, NIH3T3 host cells; T. cruzi beta-gal in NIH3T3, 90 h; hit rate 1.4% among 300,000; inhibition, % (no concentration beside the values);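 active means mean inhibition across valid replicates above about 55%, limit read from the data; inconclusive means mean below that limit but half or more replicates reach it; inactive means mean below it, under half of replicates reach it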;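 further: signal also drops with host cell toxicity which is not excluded here; 0% = plate median of DMSO wells and 100% = zero luminescence signal; higher percent means less beta-gal luminescence so fewer parasites; stock transfer was 50 nL into about 50 µL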
Ecoli rRNA inh: reduced GFP signal of wild-type E. coli, primary screen, bacterial rRNA inhibitor project, GFP/RFP fluorescence, OD600, single point; E. coli WT GFP vs humanized-ribosome RFP mutants, 24 h; active compounds read low; DMSO median 0, no signal -100; hit rate 1.6% among 350,000; GFP signal change (wild-type ribosome), % (no concentration beside the values);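 active means significant combined selectivity score with lowered wild-type GFP, culture density cut under 30%, mutant RFP and density less affected; inactive means any of these conditions unmet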; further: one replicate is shown; some compounds called inactive have numbers as strong as hits
RanGTP-Imp inh: inhibitors of RanGTP-importin-beta interaction, primary screen, biochemical, FRET, CFP-Ran, YFP-importin-beta, homogeneous | Ran GTPase (GTP-bound) - importin-beta complex | cell-free CFP-Ran/YFP-importin-beta FRET ratio | inhibition, % (no concentration beside the values) | hit rate 1.1% among 300,000;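 active means most replicates above 15%; inconclusive means exactly half above 15%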;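 further: 0% = DMSO wells and 100% = Ran loaded with GDP instead of GTP; wells of about 40 µL received 100 nL stock; the first replicate is given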
Ecoli rRNA inh OD600: second read-out of Ecoli rRNA inh, no call of its own (marks repeat the call); OD600 change, %; measured here: OD600 growth;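 optical density of the mix in the first replicate; 0 = DMSO median and -100 = no signal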
Ecoli rRNA inh RFP: further read-out of Ecoli rRNA inh, marked with its call; RFP signal change, %; measured here: RFP humanized mutant strains;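 first replicate; 0 = DMSO median and -100 = no signal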
The depositor's hits bear a star; u = inconclusive; x = no result given; & = joins results of further samples. Some of the compounds tested; the hit share may differ from the screen's.

SMILES	MLL AF4-AF9 inh	Calb FLC	Vif TR-FRET	Beta cell apopt	Bfl-1 A1 inh	T cruzi inh	Ecoli rRNA inh	Ecoli rRNA inh OD600	Ecoli rRNA inh RFP	RanGTP-Imp inh
O=C(CC(Cc1ccccc1)C(=O)O)NCCc1ccc2c(c1)OCO2 (stereo unspecified)	x	2	14%	-1	0.0	-8	x	x	x	4.1
CCN(CC)C(=O)C1CCN(Cc2cn(C)nc2-c2ccc(Oc3ccccc3)cc2)CC1	3.6	-29	u	-2	0.1	10	1	-2	-0.7	-2.5
Cc1cc(C)n(-c2ccn(Cc3ccc(Cl)cc3Cl)c(=O)n2)n1	x	-53	4%	8	-0.3	26	x	x	x	-1.5
O=c1oc2ccccc2nc1/C=C(\O)c1ccccc1	-2.0	-16	-1%	-6	-0.4	-4	-8	2	9.3	-1.3
Cc1ccc(Nc2cc(C)nn2-c2nc(C)cc(C)n2)cc1	x	6	3%	55	-0.8	37	x	x	x	24*
O=C(Nc1ccc(Cl)cn1)c1ccc(-c2cc(Cl)ccc2Cl)o1	x	11	-11%	-4	0.3	1	x	x	x	-3.6
Cc1cc(C)cc(C(=O)NCC(=O)OCC(=O)NCC(F)(F)F)c1	0.7	10	u	2	-0.3	-13	18	-2	-11	4.6
O=[N+]([O-])c1cn(Cc2ccccc2)cn1	-1.0	-6	-7%	5	0.8	0	-5	-1	-4.2	6.2
COc1ccc(N2CCN(Cc3nc4sc(C)c(C)c4c(=O)[nH]3)CC2)cc1	-4.4	-2	0%	-5	0.0	-5	9	-1	1.6	1.9
Cn1c(SCC(=O)N2CCCCC2)nc2cccnc21	x	1	14%	-3	-0.5	2	x	x	x	3.2
C/C=C/C1=CC(=O)C[C@H](c2ccc3c(c2)OCO3)C1	1.6	x	x	2	-0.9	x	-2	-9	-8.2	x
Cc1ccc(OCC(=O)OC(C)C(=O)NC2CCCCC2C)cc1C (stereo unspecified)	-3.2	x	-10%	4	-1.9	x	10	16	-2.4	x
Cc1ccc(C(=O)OCC(=O)Nc2cc(C(C)(C)C)nn2-c2ccccc2)c(O)c1	-1.7	-5	2%	1	0.1	-9	-31	-34	-6.1	6.0
O=C(Nc1cccc(Br)c1)c1cc(=O)c2ccccc2o1	0.3	1	x	-7	-0.8	5	26	13	1.7	1.5
CCC1C(=O)n2nc(-c3ccccc3)cc2N=C1C (stereo unspecified)	-2.0	6	u	-2	-2.4	-4	-2	12	-0.8	-1.3
COCCNC(=O)C(c1ccc(C)o1)N(CCOC)C(=O)Cn1nnc2ccccc21 (stereo unspecified)	-1.5	82*	15%	-5	0.3	-1	x	x	x	0.8
O=C1c2ccccc2NC(c2cc(Cl)cc(Cl)c2O)N1Cc1cccnc1 (stereo unspecified)	-0.5	6	-1%	-7	-0.2	-3	-2	1	0.7	-1.1
COc1ccc(-c2ccnc3ncnn23)cc1	-1.5	12	1%	3	-0.4	7	-1	7	-11	0.5
Cc1cccc(NC(=O)COC(=O)CCc2ccc(S(=O)(=O)N3CCOCC3)cc2)c1C	-1.8	9	x	x	0.1	1	18	19	0.9	-0.2
COC(=O)C(C)Sc1ccc2nnc(CCNS(=O)(=O)c3ccccc3)n2n1 (stereo unspecified)	-1.1	1	-1%	-1	-0.4	-1	14	12	0.5	3.6
CCc1noc(C)c1C(=O)N1CC(C)SC1=Nc1ccc(Cl)cc1 (stereo unspecified)	2.8	x	10%	-5	1.4	x	x	x	x	x
Cc1ccc(C(=O)Nc2ccc(C(=O)N3CCCCC3)cc2)cc1	0.3	19	-14%	2	0.2	-13	2	7	0.5	u
O=c1[nH]c(=S)[nH]cc1Oc1ccc(Cl)cc1Cl	-0.2	4	u	x	x	-15	-25*	-6.2*	-5.2*	4.8
O=C(Nc1ccc([N+](=O)[O-])cc1)Nc1nc(-c2ccc(Cl)s2)cs1	-5.6	-13	23%	129*	-0.2	46	-54	-69	-26	-4.5
COc1ccc(NC(=O)CSc2ccc3nnc(-c4cccnc4)n3n2)cc1	-1.2	1	x	-12	0.3	-9	13	11	0.4	4.0
CCCc1cc(-c2n[nH]c(=S)n2Cc2ccccc2)cs1	-3.9	6	u	4	0.1	8	-28	-38	-6.3	1.1
CCN(CC)Cc1c(O)c(Cl)cc2c(C)c(C)c(=O)oc12	x	0	12%	-2	u	1	x	x	x	20*
CC(=O)Nc1ccc(NC(=O)COC(=O)c2n[nH]c3ccccc23)cc1	-1.1	10	x	0	-1.7	-5	2	0	2.3	6.7
Cc1cc2cc(CCNC(=O)C3c4ccccc4Oc4ccccc43)c(=O)[nH]c2cc1C	x	-5	5%	-12	0.7	-1	x	x	x	1.9
COc1ccc(CCNC(=O)COC(=O)c2cc(=O)c3ccccc3o2)cc1	1.4	x	3%	-4	-0.6	x	6	12	-3.6	x
CN(CC(=O)O)S(=O)(=O)c1ccc2[nH]c(=O)c(=O)[nH]c2c1	-2.6	-4	0%	-3	-0.4	1	9	-1	-9.8	-0.8
Cc1ccccc1C(=O)OC(C)C(=O)NCc1ccc2c(c1)OCO2 (stereo unspecified)	3.9	x	-3%	-5	0.2	x	5	3	5.0	x
Cc1cc(C)nc(/N=C(\N)Nc2ccc3c(c2)OCCO3)n1	x	-12	4%	2	-0.5	-8	x	x	x	-1.0
CCOC(=O)Cn1nnnc1CN1CCN(c2ccc(OC)cc2)CC1	0.5	-8	-13%	-12	0.5	-11	9	16	2.4	0.2
CC(/C=N/NC(=O)COc1ccccc1C)=N\NC(=O)COc1ccccc1C	-2.4	x	x	5	0.1	-1	6	11	-1.0	-0.3
O=[N+]([O-])c1ccc(S(=O)(=O)N2CCN(Cc3ccco3)CC2)cc1	0.5	5	x	2	0.6	11	-6	6	-2.2	5.8
CN(C)C(CNC(=O)c1cccc(S(=O)(=O)Nc2ccccc2Cl)c1)c1ccco1 (stereo unspecified)	2.7	x	-5%	3	1.2	x	3	7	-0.6	x
O=C(NCc1ccccn1)C(=O)Nc1ccccc1	-9.9	4	6%	1	-0.5	-15	5	0	-8.2	2.1
CC1(OC(=O)CCc2ccccc2)C(=O)C=C2C=C(C3CC3)OC=C2C1=O (stereo unspecified)	x	-1	x	2	1.0	-5	x	x	x	0.8
CCOc1ccccc1NC(=O)C1CCCN(S(=O)(=O)c2ccc(-n3cnnn3)cc2)C1 (stereo unspecified)	0.0	-3	3%	2	-0.6	-3	4	9	-3.6	-3.6
COc1ccc(Cc2nnc(SCC(=O)N3CCCCC3)o2)cc1	-3.5	-15	-1%	-3	-0.7	7	3	4	-0.6	-2.2
COc1cc2c(cc1NC(=S)Nc1ccccc1C)oc1ccccc12	x	-1	u	1	0.4	15	x	x	x	4.4
C=CCn1c(SCC(N)=O)nnc1-c1cc2c(s1)CCC(CC)C2 (stereo unspecified)	x	-10	x	-5	-2.5	-4	x	x	x	-4.9
COc1ccc(C(=O)CSc2ccc3nnc(-c4cccnc4)n3n2)cc1	1.6	1	13%	-5	0.3	-11	5	7	-1.5	-1.6
O=C(CCOc1ccc(F)cc1)Nc1nccs1	x	-16	-5%	-4	0.3	-9	8	7	3.4	11
C1CCN(Cc2nnnn2CC2CCCO2)CC1 (stereo unspecified)	0.2	-25	8%	-5	-1.6	4	9	4	-1.8	-2.2
O=C1CCCc2c1[nH]c1ccc(CN3CCCCC3)cc21	3.3	2	3%	-4	-0.2	u	8	9	-1.0	0.7
CCCCc1ccc(NC(=O)c2c(C)noc2C)cc1	x	6	-4%	5	u	-2	x	x	x	3.7
CCN(c1ccc2c(c1)OCO2)S(=O)(=O)c1cc(Br)cc2c1N(C(C)=O)CC2	-4.8	-11	5%	x	-0.5	63*	9	0	1.1	-1.1
CCN1CCN(c2c(Cl)cccc2NC(=O)c2ccc(Br)o2)CC1	x	-4	2%	1	-0.6	29	x	x	x	2.8

A run of entries from further up, as a working copy:
SMILES	MLL AF4-AF9 inh	Calb FLC	Vif TR-FRET	Beta cell apopt	Bfl-1 A1 inh	T cruzi inh	Ecoli rRNA inh	Ecoli rRNA inh OD600	Ecoli rRNA inh RFP	RanGTP-Imp inh
COc1ccc(Cc2nnc(SCC(=O)N3CCCCC3)o2)cc1	-3.5	-15	-1%	-3	-0.7	7	3	4	-0.6	-2.2
COc1cc2c(cc1NC(=S)Nc1ccccc1C)oc1ccccc12	x	-1	u	1	0.4	15	x	x	x	4.4

(continued)
SMILES	MLL AF4-AF9 inh	Calb FLC	Vif TR-FRET	Beta cell apopt	Bfl-1 A1 inh	T cruzi inh	Ecoli rRNA inh	Ecoli rRNA inh OD600	Ecoli rRNA inh RFP	RanGTP-Imp inh
CCOCCCn1c(=N)c(C(=O)NCc2ccc3c(c2)OCO3)cc2c(=O)n3cccc(C)c3nc21	13	0	4%	18	0.4	58*	7	5	0.9	29*
CC(C)N1CCN(Cc2ccc(C#CC(C)(C)O)cc2)CC1CCO (stereo unspecified)	3.0	u	u	0	0.0	7	5	10	-4.2	0.5
COc1ccc(NC(=O)Nc2ccc3c(c2)C(=O)N([C@H](C)CO)C[C@H](C)[C@@H](CN(C)C(=O)Nc2ccc(C(F)(F)F)cc2)O3)cc1	-5.5&-29	x	x	2	0.5	x	-6	-9	2.4	x
C=CCn1nc2ccccc2c1OC	-1.1	-2	x	-9	0.1	-30	4	12	-0.3	u
COC(=O)c1c(-c2ccc(OC)cc2)oc2ccc(-c3cc(OC)c(OC)c(OC)c3)cc12	-3.8	-10	x	2	-0.6	7	9	-1	-2.4	2.1
Cc1c(Cl)cnc(NC(=O)COC(=O)C2CC3CCCC(C2)C3=O)c1Cl (stereo unspecified)	2.3	x	13%	-5	1.5	x	3	6	-3.3	x
COc1cc(C)c(C)cc1S(=O)(=O)N1CCN(Cc2ccc3c(c2)OCO3)CC1	x	0	12%	2	0.1	-6	x	x	x	0.2
Cc1cc(C)c2sc(N(CCN(C)C)C(=O)c3cc(Cl)sc3Cl)nc2c1	2.9	9	-5%	-9	0.8	51	2	-4	10	3.8
O=C(COC(=O)CC1CC2CCC1C2)Nc1ccccc1[N+](=O)[O-] (stereo unspecified)	2.6	x	-2%	12	2.9	x	x	x	x	x
COc1ccc(C2(c3ccc(OC)cc3)NC(=O)N(CC(=O)Nc3ccc(C(N)=O)cc3)C2=O)cc1	3.6	-2	x	1	0.2	-14	2	-4	6.2	-1.7
O=C1CCCc2ccccc2N1Cc1ccc(F)cc1	-1.2	19	8%	-2	-0.5	-5	-17	-13	-3.2	2.7

Assay outcomes from PubChem BioAssay.
